Ecoli rRNA inh: reduced GFP signal of wild-type E. coli, primary screen, bacterial rRNA inhibitor project, GFP/RFP fluorescence, OD600, single point; E. coli WT GFP vs humanized-ribosome RFP mutants, 24 h; stronger effect = lower value; DMSO median 0, no signal -100; 350,000 tested, 1.6% active; AID 720706, 2013; GFP signal change (wild-type ribosome), % (test concentration not listed);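 active means significant combined selectivity score with lowered wild-type GFP, culture density cut under 30%, mutant RFP and density less affected; inactive means any of these conditions unmet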; further: one replicate is shown; some compounds called inactive have numbers as strong as hits
MLL AF4-AF9 inh: inhibitors of AF4 peptide binding to AF9, primary screen, biochemical, AlphaScreen, biotin-AF4 peptide, FLAG-AF9, single point | Protein AF-9 (Homo sapiens), P42568 | inhibition, % at 10 µM | AID 651704, 2012 | 350,000 tested, 0.47% active;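 active means every replicate reaching a set inhibition limit, whatever the replicate mean, cut at about 25% in these data; inconclusive means mean inhibition reaches that limit but some replicates miss it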;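 further: 0% = plate neutral control median and 100% = total signal loss; the record names both 10 and 1 µM as test concentration; the first replicate is given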
Target sequence (P42568 whole entry, looked up): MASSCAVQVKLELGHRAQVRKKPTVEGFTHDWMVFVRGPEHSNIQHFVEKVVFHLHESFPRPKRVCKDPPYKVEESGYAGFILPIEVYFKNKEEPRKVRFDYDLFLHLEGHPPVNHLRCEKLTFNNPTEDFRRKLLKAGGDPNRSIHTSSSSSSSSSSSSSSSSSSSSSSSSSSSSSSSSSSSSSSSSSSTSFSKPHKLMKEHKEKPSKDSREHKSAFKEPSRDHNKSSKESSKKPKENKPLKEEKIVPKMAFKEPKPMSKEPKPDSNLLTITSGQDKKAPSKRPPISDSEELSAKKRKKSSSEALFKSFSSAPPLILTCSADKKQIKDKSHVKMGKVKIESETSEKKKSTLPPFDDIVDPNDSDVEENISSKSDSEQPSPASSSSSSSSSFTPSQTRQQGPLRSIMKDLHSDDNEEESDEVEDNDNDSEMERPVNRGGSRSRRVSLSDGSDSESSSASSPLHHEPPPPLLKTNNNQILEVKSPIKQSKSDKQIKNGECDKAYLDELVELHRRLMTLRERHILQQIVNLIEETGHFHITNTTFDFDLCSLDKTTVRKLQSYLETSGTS
T cruzi inh: inhibitors of intracellular T. cruzi growth, primary screen, luminescence, NIH3T3 host cells | T. cruzi beta-gal in NIH3T3, 90 h | inhibition, % (test concentration not listed) | 300,000 tested, 1.4% active;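 active means mean inhibition across valid replicates above about 55%, limit read from the data; inconclusive means mean below that limit but half or more replicates reach it; inactive means mean below it, under half of replicates reach it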;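 further: signal also drops with host cell toxicity which is not excluded here; 0% = plate median of DMSO wells and 100% = zero luminescence signal; higher percent means less beta-gal luminescence so fewer parasites; stock transfer was 50 nL into about 50 µL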
A1 inh: caspase 3/7 activation in MEF A1-2A-BIM cells, primary screen, A1 inhibitor project, cell-based, luminescence, HTS; Caspase-Glo 3/7 luminescence, 3 h; percent of clofoctol response, vehicle zero; caspase activation, % (no concentration beside the values); 330,000 tested, 0.066% active;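 active means over half of replicate activation scores above 10%, or exactly half above 10 with the replicate mean above 10; inconclusive means replicate mean below 10 yet half the replicates above 10; inactive means over half of replicates below 10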;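 further: wells of about 30 µL received 50 nL stock; many hits fall short of the cut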
Beta cell apopt: inhibitors of cytokine-induced beta cell apoptosis, primary screen, luminescence; INS-1E cytokine-induced death, ATP luminescence, 48 h; percent of positive-control rescue, neutral wells zero; protection from apoptosis, % (no concentration beside the values); 300,000 tested, 0.8% active; AID 435005, 2010;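 active means all replicates at 75% or more, or half of them and the mean; inconclusive means half reach 75% but not the mean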;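 further: 0% = cytokine-treated negative control wells and 100% = positive control rescue; higher means more ATP so stronger rescue from cytokine killing; wells of about 40 µL received 100 nL stock; the first replicate is given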
RanGTP-Impb inh: inhibitors of RanGTP-importin-beta interaction, primary screen, biochemical, FRET, CFP-Ran, YFP-importin-beta, homogeneous; inhibition, % (concentration not given with the values); cell-free CFP-Ran/YFP-importin-beta FRET ratio; 300,000 tested, 1.1% active; Ran GTPase (GTP-bound) - importin-beta complex;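 active means most replicates above 15%; inconclusive means exactly half above 15%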;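 further: 0% = DMSO wells and 100% = Ran loaded with GDP instead of GTP; wells of about 40 µL received 100 nL stock; the first replicate is given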
Calb FLC: C. albicans growth inhibition with fluconazole, primary screen, CaCi-2 strain, Alamar Blue fluorescence; C. albicans CaCi-2 (fluconazole-resistant clinical isolate) + fluconazole, 48 h; growth inhibition, % (test concentration not listed); 300,000 tested, 0.57% active; AID 1979, 2009;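 active means most replicates above 75%; inconclusive means exactly half above 75%; inactive means most below 75%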;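 further: all wells also contain fluconazole at 8 µg/ml as a sub-toxic cotreatment; 0% = median of DMSO wells and 100% = median of geldanamycin control wells; wells of about 8 µL received 7.5 nL stock; the first replicate is given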
Vif A3G: inhibitors of Vif binding to APOBEC3G peptide, primary screen, biochemical, TR-FRET, GST-Vif 1-94, biotin-A3G peptide, dose response retest (AID 1117319); 260,000 tested, 0.57% active; TR-FRET GST-Vif / biotin-A3G peptide binding; higher % means a stronger effect; test concentration not given here; strong numbers were not always called active; inhibition, %; hits with a dose series show IC50 in µM; Virion infectivity factor (Human immunodeficiency virus type 1 group M subtype B (isolate …;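 active means above the screen mean plus three standard deviations and confirmed in dose response; inconclusive means results disagree or hit not tested in dose response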;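 further: Vif residues 1-94 fused to GST binding biotinylated APOBEC3G peptide 110-148; 0% = full assay without inhibitor and 100% = GST in place of GST-Vif; retest series ran down from 100 µM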
Ecoli rRNA inh OD600: further read-out of Ecoli rRNA inh, marked with its call; OD600 change, %; measured here: OD600 growth;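 optical density of the mix in the first replicate; 0 = DMSO median and -100 = no signal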
Ecoli rRNA inh RFP: also measured in Ecoli rRNA inh; calls as there; RFP signal change, %; measured here: RFP humanized mutant strains;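 first replicate; 0 = DMSO median and -100 = no signal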
* = called active by the depositor; ? = inconclusive; . = no result given; & = joins results of further samples. These rows are one share of the data. The share of hits here may be higher or lower than overall.

SMILES	Ecoli rRNA inh	Ecoli rRNA inh OD600	Ecoli rRNA inh RFP	MLL AF4-AF9 inh	T cruzi inh	A1 inh	Beta cell apopt	RanGTP-Impb inh	Calb FLC	Vif A3G
COc1cccc2c(=O)n(CC(=O)Nc3ccccc3F)ccc12	4.4	6.9	0.3	4.5	8.6	0.3	.	2.6	-4.1	-2.8%
CCc1ccc(C2NC(=O)c3ccccc3O2)cc1 (centres undefined)	8.5	12.2	0.1	-2.5	-10.5	?	-7.8	4.5	-13.7	-2.5%
CCOC(=O)/C(C#N)=N/Nc1ccccc1C#N	3.8	-3.0	-1.7	8.9	0.4	-1.7	8.4	1.8	-5.1	3.5%
COc1ccc(NC(=O)CSc2nnc(-c3ccncc3)n2CC2CCCO2)c(OC)c1 (centres undefined)	.	.	.	.	-0.1	-0.7	-4.5	-0.8	-1.8	-2.0%&0.4%
Cc1cccc(NC(=O)C2CCCN(c3ncnc4c3nc3n4CCCCC3)C2)n1 (centres undefined)	-5.2	-13.0	1.3	-0.1	-0.6	-0.4	-3.6	-2.4	2.1	.
COc1ccc(CCNC(=O)CCC(=O)NC2CCCC(C)C2C)cc1OC (centres undefined)	-1.5	-0.6	-2.4	-1.8	-19.0	0.6	0.5	6.4	-1.8	.
COc1ccc(S(=O)(=O)NC(C)C(=O)NC2CC2)cc1C (centres undefined)	17.9	13.8	4.2	1.1	6.2	-1.0	-2.2	3.5	-0.4	-6.4%
COCCOc1ccc(C(F)(F)F)cc1NC(=O)c1ccccc1	.	.	.	.	12.4	-0.6	4.2	-2.7	1.9	8.4%
COc1ccc(OC)c(NC(=O)c2ccc(CN3CCOCC3)cc2)c1	.	.	.	.	-16.6	-0.3	-2.4	-1.6	0.2	4.4%
CCC(C)[C@H]1CNCCN1CCc1cccc2ccccc12 (some centres undefined)	-11.6	-19.9	3.4	-37.0	4.9	-1.9	-4.4	-2.7	1.5	.
C=CCNC(=O)c1ccc(N(Cc2ccc(Cl)cc2)S(C)(=O)=O)cc1	9.3	9.3	-1.2	1.9	-9.4	-0.6	-4.8	-1.8	-0.2	2.9%
Cc1ccc2[nH]c(C(=O)NCCN3CCCC3)cc2c1	14.9	7.4	6.2	6.0	4.0	0.2	.	2.1	19.7	.
COc1ccccc1OCCC(=O)Nc1cccc(S(=O)(=O)N2CCOCC2)c1	1.1	3.7	-1.0	8.0	.	0.8	-1.6	.	.	-0.7%
NS(=O)(=O)c1ccc(CCNCc2cc(Cl)ccc2OCc2ccccc2)cc1	-17.0	-27.9	0.8	1.4	-8.6	1.5	42.0	5.6	-2.7	.
COC(=O)c1n[nH]nc1-c1ccccc1	.	.	.	.	-9.6	0.2	-5.7	-1.9	-1.3	9.3%
O=c1cnc2ccccc2n1Cc1ccc(Br)cc1	-3.4	-25.0	-4.1	-0.9	4.0	-0.7	6.4	-0.6	-0.6	.
Cn1ccnc1Sc1nc(Nc2cccc(Cl)c2)nc(N2CCOCC2)n1	.	.	.	.	34.1	0.2	3.9	-2.0	2.8	2.5%
CCOC(=O)CSCC(=O)Nc1nnc(-c2cccc([N+](=O)[O-])c2)s1	6.4	11.5	-9.4	5.0	1.8	-3.3	-11.1	-1.4	0.6	-0.8%
O=C(CCS(=O)(=O)Cc1ccccc1)NCCc1ccccc1	9.2	3.2	-10.1	-2.8	-17.8	-1.1	-5.8	4.0	-9.6	-7.8%
CC(=O)c1cccc(CN2CCN(CCC(C)C)C(CCO)C2)c1 (centres undefined)	6.1	-1.1	6.5	-37.2	6.9	0.0	-6.1	6.5	-35.9	-1.9%
CCc1nc(SCC(=O)OC)c2c3c(sc2n1)COC(C)(C)C3	-9.7	-19.6	-0.4	0.9	1.9	-0.7	-1.3	-0.9	-0.1	-3.0%
COc1cc(OC)c(NC(=S)Nc2cccc(C(C)=O)c2)cc1Cl	.	.	.	.	5.6	-0.2	-2.3	1.1	-4.3	15.4%
CC(C)(CO)NC12CC3CC(CC(C3)C1)C2	-1.7	-0.6	-1.6	0.1	-2.4	0.0	-1.5	1.2	?	0.7%
Cc1ccc(NC(=O)c2noc3c2CCc2ccccc2-3)cc1	.	.	.	.	9.4	-2.6	1.6	-1.3	-9.6	0.9%
CNC(=O)c1cccc2nc3ccccc3nc12	-23.6*	-17.7*	-6.6*	2.5	13.6	-0.4	-12.1	3.1	2.8	1.3%
C/C(=C\c1ccc(Br)cc1)C(=O)c1c(C)cc(C)[nH]c1=O	-14.3	-7.9	0.1	2.6	-4.6	1.1	-0.5	-3.6	0.3	.
Cc1ccn2c(NC(=O)c3cccs3)c(-c3ccccc3)nc2c1	.	.	.	.	12.5	0.0	-2.5	-2.0	-8.2	-1.4%
CC(=O)N1N=C(c2ccccc2)CC1c1ccc2c(c1)OCO2 (centres undefined)	-11.9	-14.1	-1.3	1.6	10.3	-0.1	-8.9	4.6	-2.7	-4.8%
Cc1cc(C)cc(NC(=O)Cn2ncn3c(cc4ccccc43)c2=O)c1	2.7	5.6	-1.8	1.3	5.6	0.6	-1.7	-4.7	-12.2	-1.4%
CC(C)COc1ccc(C(=O)Nc2ccc(NC(=O)c3ccco3)cc2)cc1	.	.	.	.	-5.6	-0.2	-7.7	1.1	25.4	.

Some of the entries so far, field by field:
Cc1ccn2c(NC(=O)c3cccs3)c(-c3ccccc3)nc2c1
  Ecoli rRNA inh: .
  Ecoli rRNA inh OD600: .
  Ecoli rRNA inh RFP: .
  MLL AF4-AF9 inh: .
  T cruzi inh: 12.5
  A1 inh: 0.0
  Beta cell apopt: -2.5
  RanGTP-Impb inh: -2.0
  Calb FLC: -8.2
  Vif A3G: -1.4%

CC(=O)N1N=C(c2ccccc2)CC1c1ccc2c(c1)OCO2 (centres undefined)
  Ecoli rRNA inh: -11.9
  Ecoli rRNA inh OD600: -14.1
  Ecoli rRNA inh RFP: -1.3
  MLL AF4-AF9 inh: 1.6
  T cruzi inh: 10.3
  A1 inh: -0.1
  Beta cell apopt: -8.9
  RanGTP-Impb inh: 4.6
  Calb FLC: -2.7
  Vif A3G: -4.8%

(continued)
SMILES	Ecoli rRNA inh	Ecoli rRNA inh OD600	Ecoli rRNA inh RFP	MLL AF4-AF9 inh	T cruzi inh	A1 inh	Beta cell apopt	RanGTP-Impb inh	Calb FLC	Vif A3G
COc1ccc(Nc2cc(C)nc3ncnn23)c(OC)c1	7.9	9.8	-3.1	0.9	-10.4	0.5	-8.4	0.7	-0.1	0.8%
Nc1cc(=O)nc(SCC(=O)Nc2cccc3ccccc23)n1CCc1ccccc1	.	.	.	.	-13.0	0.1	-8.8	-0.2	-4.8	4.6%
Cc1ccccc1OCC(=O)Nc1ccccc1-c1ccccc1	-38.1*	-28.4*	-5.2*	-1.3	19.0	0.4	-0.8	3.4	1.8	.
C=CCc1cc(C=O)cc(OCC)c1OCc1ccc(Cl)cc1	3.1	-4.1	-2.0	-1.0	22.3	0.1	5.1	-4.5	5.4	?
O=C(CSc1nnnn1Cc1ccccc1)N1CCN(c2ccccc2)CC1	.	.	.	.	10.5	0.0	-4.0	0.2	-5.0	0.4%
Cn1c(/C(C#N)=N/O)nc2ccccc21	.	.	.	.	-5.8	1.1	-0.8	0.4	0.1	26.2%
COc1ccc(S(=O)(=O)n2oc(=O)cc2-c2ccccc2)cc1	.	.	.	.	1.0	0.0	-7.0	-1.5	8.7	10.6%
CCOC(=O)CNC(=O)Cn1cnc2sc(C)c(S(=O)(=O)N3CCC(C)CC3)c2c1=O	.	.	.	.	-9.7	1.4	-0.4	-4.5	2.6	13.1%
O=C1OC2(CCCCC2)OC(=O)C1=CNc1nc2ccccc2s1	.	.	.	.	-18.7	0.4	-11.0	-0.7	-23.9	0.7%
Cc1cccc(-c2nc3ccccc3c3nncn23)c1	.	.	.	.	1.7	0.1	11.2	?	28.2	-6.1%
Cc1ccc(O)c(-c2cc3ccccc3[nH]2)c1	.	.	.	.	50.2	-2.9	2.7	-5.4	82.6*	5.3%
CCCCc1c(O)c2ccccc2[nH]c1=O	.	.	.	.	1.1	1.7	2.0	-1.5	4.1	-1.4%
CC(=O)Nc1ccc(NS(=O)(=O)c2cc(C)sc2C)cc1	.	.	.	.	2.3	0.7	-6.3	-2.9	?	4.5%
CC(=O)c1ccc(OCc2cc(C(=O)N3CCCCCCC3)no2)cc1	-9.6	-16.0	0.2	-0.7	7.9	-1.6	1.7	5.4	-3.1	.
Cc1cc(C)c(S(=O)(=O)Nc2ccccc2C(=O)N2CCCC2)c(C)c1	-0.1	-0.2	-0.4	-5.5	12.1	-0.7	0.0	2.7	-2.7	-3.2%
O=C(Nc1cscc1S(=O)(=O)c1ccccc1)c1ccccc1Cl	-21.8*	-12.3*	-1.3*	0.1	-8.6	0.0	-2.9	?	-2.7	-6.3%
COc1ccc2[nH]c(O)c(N=NC(=O)c3ccc(NS(=O)(=O)c4cccs4)cc3)c2c1	8.8	5.1	-1.5	-1.3	.	-2.5	1.4	.	.	23.2%
COc1ccc(N(CC(O)CN2CCOCC2)S(=O)(=O)c2ccccc2)cc1 (centres undefined)	12.8	9.3	0.2	1.9	-14.2	2.3	1.3	1.9	22.0	.
CCOC(=O)N1CCN(C(=O)COC(=O)c2cc(Cl)cc(Cl)c2)CC1	-3.0	-8.0	3.8	-1.2	.	2.2	-4.4	.	.	-2.9%
CCOc1cc(/C=N\NC(=O)c2c(C)nc3ccccn23)ccc1O	-0.2	-0.7	-2.2	-24.2	-3.2	0.0	-7.6	-2.1	3.0	.
Cc1ccc(S(=O)(=O)c2c[nH]c3ccc(Cl)cc3c2=O)cc1	3.5	2.3	1.0	-1.0	5.5	0.2	0.3	-3.3	-0.2	-10.7%
CC(=O)Nc1ccc(N2C(C(C)=O)=NN(c3ccc(Cl)cc3)C2c2sccc2C)cc1 (centres undefined)	.	.	.	.	26.4	-0.6	.	4.4	-24.5	5.0%
CCOC(=O)C1=C(O)/C(=C\c2sccc2C)N=C1C	3.9	10.8	5.8	2.0	-18.9	-0.5	-1.0	-0.9	-0.8	0.9%
COC(=O)c1c(C)c(OC(=O)c2c(C)cc(O)c(C=O)c2O)cc(C)c1O	.	.	.	.	-7.3	0.1	3.1	2.0	2.4	.
COc1ccccc1CC(=O)NC1CCCCCC1	19.0	10.9	1.9	-1.9	-2.7	1.4	-0.8	-4.5	-5.4	.
COc1ccc(-c2[nH]ncc2-c2ccc3c(c2)OCCO3)c(O)c1	.	.	.	.	7.3	0.9	-50.5	-1.7	-4.4	5.5%
